# Screens deposited in PubChem BioAssay by several laboratories.
# AF4-AF9 inh: inhibitors of AF4 peptide binding to AF9, primary screen, biochemical, AlphaScreen, biotin-AF4 peptide, FLAG-AF9, single point | Protein AF-9 (Homo sapiens), P42568 | inhibition, % at 10 µM | 350,000 tested, 0.47% active;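 active = every replicate reaching a set inhibition limit, whatever the replicate mean, cut at about 25% in these data; inconclusive = mean inhibition reaches that limit but some replicates miss it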;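 note: 0% = plate neutral control median and 100% = total signal loss; the record names both 10 and 1 µM as test concentration; the first replicate is given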
# Target sequence (P42568 whole entry, looked up): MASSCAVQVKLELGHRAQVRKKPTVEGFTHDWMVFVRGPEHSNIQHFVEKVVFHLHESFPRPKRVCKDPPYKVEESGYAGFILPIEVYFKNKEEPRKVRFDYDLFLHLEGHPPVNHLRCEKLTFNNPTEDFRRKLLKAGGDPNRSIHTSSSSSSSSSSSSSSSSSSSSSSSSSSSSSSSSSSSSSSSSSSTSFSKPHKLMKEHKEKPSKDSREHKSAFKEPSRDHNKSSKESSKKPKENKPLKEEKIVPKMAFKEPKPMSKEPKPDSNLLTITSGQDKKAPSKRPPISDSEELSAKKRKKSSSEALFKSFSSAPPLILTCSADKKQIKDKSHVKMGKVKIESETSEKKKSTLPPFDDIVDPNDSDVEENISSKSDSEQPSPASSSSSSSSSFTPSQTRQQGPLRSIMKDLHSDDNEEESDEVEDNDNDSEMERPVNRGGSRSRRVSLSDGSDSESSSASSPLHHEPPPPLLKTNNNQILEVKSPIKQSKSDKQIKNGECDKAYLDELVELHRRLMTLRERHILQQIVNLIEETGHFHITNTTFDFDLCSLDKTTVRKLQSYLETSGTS
# RanGTP-Imp inh: inhibitors of RanGTP-importin-beta interaction, primary screen, biochemical, FRET, CFP-Ran, YFP-importin-beta, homogeneous; Ran GTPase (GTP-bound) - importin-beta complex; cell-free CFP-Ran/YFP-importin-beta FRET ratio; inhibition, % (no concentration beside the values); 300,000 tested, 1.1% active; AID 2216, 2009;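 active = most replicates above 15%; inconclusive = exactly half above 15%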;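 note: 0% = DMSO wells and 100% = Ran loaded with GDP instead of GTP; wells of about 40 µL received 100 nL stock; the first replicate is given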
# Beta cell apopt: inhibitors of cytokine-induced beta cell apoptosis, primary screen, luminescence; INS-1E cytokine-induced death, ATP luminescence, 48 h; percent of positive-control rescue, neutral wells zero; protection from apoptosis, % (concentration not given with the values); 300,000 tested, 0.8% active; AID 435005, 2010;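 active = all replicates at 75% or more, or half of them and the mean; inconclusive = half reach 75% but not the mean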;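 note: 0% = cytokine-treated negative control wells and 100% = positive control rescue; higher means more ATP so stronger rescue from cytokine killing; wells of about 40 µL received 100 nL stock; the first replicate is given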
# Calb FLC: C. albicans growth inhibition with fluconazole, primary screen, CaCi-2 strain, Alamar Blue fluorescence; C. albicans CaCi-2 (fluconazole-resistant clinical isolate) + fluconazole, 48 h; growth inhibition, % (concentration not given with the values); 300,000 tested, 0.57% active; AID 1979, 2009;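 active = most replicates above 75%; inconclusive = exactly half above 75%; inactive = most below 75%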;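 note: all wells also contain fluconazole at 8 µg/ml as a sub-toxic cotreatment; 0% = median of DMSO wells and 100% = median of geldanamycin control wells; wells of about 8 µL received 7.5 nL stock; the first replicate is given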
# Ecoli rRNA inh: reduced GFP signal of wild-type E. coli, primary screen, bacterial rRNA inhibitor project, GFP/RFP fluorescence, OD600, single point; 350,000 tested, 1.6% active; GFP signal change (wild-type ribosome), % (test concentration not listed); E. coli WT GFP vs humanized-ribosome RFP mutants, 24 h; hits give low values; DMSO median 0, no signal -100;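 active = significant combined selectivity score with lowered wild-type GFP, culture density cut under 30%, mutant RFP and density less affected; inactive = any of these conditions unmet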; note: one replicate is shown; some compounds called inactive have numbers as strong as hits
# T cruzi repl: inhibitors of intracellular T. cruzi growth, primary screen, luminescence, NIH3T3 host cells; T. cruzi beta-gal in NIH3T3, 90 h; inhibition, % (concentration not given with the values); 300,000 tested, 1.4% active; AID 1885, 2009;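 active = mean inhibition across valid replicates above about 55%, limit read from the data; inconclusive = mean below that limit but half or more replicates reach it; inactive = mean below it, under half of replicates reach it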;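 note: signal also drops with host cell toxicity which is not excluded here; 0% = plate median of DMSO wells and 100% = zero luminescence signal; higher percent means less beta-gal luminescence so fewer parasites; stock transfer was 50 nL into about 50 µL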
# Vif A3G: inhibitors of Vif binding to APOBEC3G peptide, primary screen, biochemical, TR-FRET, GST-Vif 1-94, biotin-A3G peptide, dose response retest (AID 1117319) | TR-FRET GST-Vif / biotin-A3G peptide binding; higher % means a stronger effect; test concentration not given here; strong numbers were not always called active | inhibition, %, or IC50 in µM where a hit was titrated | 260,000 tested, 0.57% active;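 active = above the screen mean plus three standard deviations and confirmed in dose response; inconclusive = results disagree or hit not tested in dose response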;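 note: Vif residues 1-94 fused to GST binding biotinylated APOBEC3G peptide 110-148; 0% = full assay without inhibitor and 100% = GST in place of GST-Vif; retest series ran down from 100 µM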
# A1 inh: caspase 3/7 activation in MEF A1-2A-BIM cells, primary screen, A1 inhibitor project, cell-based, luminescence, HTS; 330,000 tested, 0.066% active; Caspase-Glo 3/7 luminescence, 3 h; percent of clofoctol response, vehicle zero; AID 2462, 2010; caspase activation, % (concentration not given with the values);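 active = over half of replicate activation scores above 10%, or exactly half above 10 with the replicate mean above 10; inconclusive = replicate mean below 10 yet half the replicates above 10; inactive = over half of replicates below 10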;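 note: wells of about 30 µL received 50 nL stock; many hits fall short of the cut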
# Ecoli rRNA inh OD600: second read-out of Ecoli rRNA inh, no call of its own (marks repeat the call); OD600 change, %; measured here: OD600 growth;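 optical density of the mix in the first replicate; 0 = DMSO median and -100 = no signal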
# Ecoli rRNA inh RFP: also measured in Ecoli rRNA inh; calls as there; RFP signal change, %; measured here: RFP humanized mutant strains;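 first replicate; 0 = DMSO median and -100 = no signal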
# The depositor's hits bear a star; ? = inconclusive; . = no result given.
SMILES,AF4-AF9 inh,RanGTP-Imp inh,Beta cell apopt,Calb FLC,Ecoli rRNA inh,Ecoli rRNA inh OD600,Ecoli rRNA inh RFP,T cruzi repl,Vif A3G,A1 inh
COc1ccccc1N(CC(=O)N1CCOCC1)S(C)(=O)=O,-3.1,0.4,-5.5,24.7,-0.4,-2.9,-0.8,0.0,-5.7%,-1.3
CC1CC1c1ccc(/C=C(\C#N)C(=O)Nc2ccc(Cl)cc2)o1 (stereo unspecified),.,16.1*,15.0,4.9,.,.,.,-11.8,.,-0.6
Cc1nc(Cl)sc1C(=O)Nc1ccc(C(F)(F)F)cc1,0.2,0.2,11.1,9.3,-30.6,-55.0,-4.6,4.6,.,-1.9
O=[N+]([O-])c1ccccc1S(=O)(=O)NC1CC2CCC1C2 (stereo unspecified),0.5,-7.7,.,-6.1,-6.1,-0.5,-4.1,-0.3,.,-0.1
CC(=O)C1C(c2cn(-c3ccccc3)nc2-c2cccs2)NC(=O)NC1(O)C(F)(F)F (stereo unspecified),.,1.8,.,16.7,.,.,.,-7.1,-1.2%,0.2
O=C(Nc1c2c(nn1-c1ccc(F)cc1)CS(=O)(=O)C2)C1CCCC1,0.7,2.3,2.3,0.9,1.9,9.7,0.2,-2.1,.,0.1
O=C(Nc1ccc(Cl)c(Cl)c1)OCc1cccnc1,.,-2.2,12.2,-12.4,.,.,.,65.3*,0.3%,-0.4
Cc1cc(S(=O)(=O)N2CCN(C(=O)c3ccco3)CC2)ccc1F,-0.3,-1.5,5.0,-1.1,5.0,8.2,-0.5,-3.2,-5.8%,1.5
CC(=O)Nc1cccc(NC(=O)C(=O)c2cn(CC(=O)N3CCCCC3)c3ccccc23)c1,2.8,2.6,1.2,1.7,-10.4,-10.2,2.5,10.0,0.3%,-2.5
COc1cc(NC(=O)c2ccccc2)c(OC)cc1NC(=O)Cc1ccc(F)cc1,-0.4,-6.0,6.7,2.2,0.8,16.5,-0.3,-9.0,-2.4%,-0.5
CCNC(=O)NC(=O)CSc1ccc(S(=O)(=O)N2CCCCC2)cn1,-3.1,.,-7.2,.,5.3,12.2,-0.7,.,-2.4%,-0.3
Cc1ccc(C(=O)NCC(=O)N2CCN(c3ncccn3)CC2)s1,.,5.8,-0.9,20.5,.,.,.,-7.5,16.2%,0.7
COc1cccc(C2CN(c3ccc(F)cc3F)N=C2c2cccs2)c1OC (stereo unspecified),.,?,7.0,13.0,.,.,.,15.9,-3.4%,0.3
CCOCCCNC(=O)c1cc2c(=O)n3cccc(C)c3nc2n1C,-1.4,5.9,8.4,3.9,9.5,6.5,1.0,8.7,.,-0.9
CCn1ccnc1CN(C)Cc1cn(C)nc1-c1ccccc1F,1.2,?,0.7,-4.9,8.9,-3.8,2.5,-1.5,-3.0%,-0.7
Cc1ccc2cc3cc(C(=O)NCCCN4CCc5ccccc5C4)oc3nc2c1,.,-2.3,-6.4,-4.9,.,.,.,47.0,-6.6%,-0.4
CCOC(=O)N1CCN(C(=O)CN(c2ccccc2)S(C)(=O)=O)CC1,-1.5,-2.5,.,2.7,11.1,10.2,4.1,-19.3,.,0.8
CCc1ccc(N(C(=O)Cn2nnc(-c3ccccc3)n2)C(C(=O)NC2CCCCC2)c2ccccn2)cc1 (stereo unspecified),.,5.7,-1.9,0.2,.,.,.,2.9,.,-0.1
O=[N+]([O-])c1cccc2c(S(=O)(=O)N3CCCCC3)cccc12,13.5,-0.8,-9.2,6.1,-12.7,-6.9,4.7,18.5,.,0.6
Cc1c(C(=O)N2CCC[C@H]2CO)oc2c(F)cccc12,0.6,-2.1,.,-1.8,-1.9,8.7,-3.8,-15.2,.,-0.2
O=C1/C(=C/c2ccc([N+](=O)[O-])cc2)CCC1C1CCCC1 (stereo unspecified),7.5,0.1,-2.9,-14.9,6.2,21.7,0.5,11.8,14.8%,0.1
Nc1c(NC=O)c(=O)n(Cc2ccccc2)c(=O)n1Cc1ccccc1,0.8,3.1,.,4.4,0.3,-2.4,2.5,-18.8,.,-0.1
CCOc1ccc(C(C)=O)cc1COc1ccc(-c2nnco2)cc1,-2.6,1.6,1.4,5.1,-2.4,-2.4,-1.6,22.1,.,-0.7
O=C(N/N=C/c1cn(-c2ccccc2)nc1-c1cccs1)c1ccccc1F,.,-0.5,7.5,-10.5,.,.,.,-16.1,.,1.6
CC1Cc2ccccc2N1C(=O)CN1CCCCC1 (stereo unspecified),0.0,-2.3,5.3,-2.5,3.1,8.9,-1.0,-4.5,1.7%,-0.4
N/C(=N\S(=O)(=O)c1cc(C(F)(F)F)cc(C(F)(F)F)c1)c1ccccc1,2.0,1.3,-1.5,5.8,7.5,1.3,-2.6,20.7,-8.4%,-0.4
O=C(CSc1nnc(C2CC2)n1C1CC1)c1ccc(Br)s1,-6.0,.,-3.4,.,-28.4*,-19.5*,-1.9*,.,.,-0.1
COC(=O)c1ccccc1NC(=O)c1ccc(COc2cccc3ccccc23)o1,.,-5.3,.,?,.,.,.,-2.8,-1.4%,0.3
Cn1cccc1C(=O)c1ccc(Cl)cc1Cl,.,-6.3,-1.3,-12.7,.,.,.,-23.6,16.2%,0.4
CCCCn1c(N)c(N(CC(C)C)C(=O)CN2C(=O)c3ccccc3C2=O)c(=O)[nH]c1=O,4.3,2.6,-0.1,-5.2,2.2,8.5,-4.1,-5.3,0.5%,0.0
FC(F)(F)c1ccc(CN2CCN(Cc3ccco3)CC2)cc1,1.9,-1.9,-2.9,-17.1,6.3,7.4,0.4,-7.4,.,0.7
CS(=O)(=O)c1ccc(C(=O)OC2CCOC2=O)cc1[N+](=O)[O-] (stereo unspecified),-1.0,0.8,.,4.9,0.3,6.1,-0.3,-28.9,.,1.3
O=C(CSc1nnc(-c2ccc3c(c2)OCO3)n1-c1ccccc1)c1ccc(Cl)cc1,.,1.0,-7.4,-5.3,.,.,.,0.1,-4.9%,0.5
O=C(Nc1ccccc1C(=O)N1CCCC1)c1cccc(S(=O)(=O)N2CCCCC2)c1,.,-1.3,1.9,13.5,.,.,.,11.2,-8.0%,0.0
CCOC(=O)C1CCN(S(=O)(=O)c2ccc(C(C)=O)cc2)CC1,.,-2.8,.,-4.0,.,.,.,-7.3,0.6%,0.3
CCN1C(=O)/C(=C\c2cn(-c3ccccc3)nc2-c2cccnc2)SC1=S,0.0,5.7,.,-0.5,1.0,0.6,8.9,0.6,5.4%,.
O=S(=O)(Nc1cccc(Cl)c1)c1ccc(-n2cccn2)cc1,-2.2,-0.7,-6.5,-6.3,-8.7,-17.0,3.7,5.2,.,1.2
O=C(CSc1ccc(-c2ccc(F)cc2)nn1)N1CCCc2ccccc21,2.6,4.3,-5.1,3.4,-29.2,-20.8,18.1,17.8,.,-1.8
COc1ccc2c(c1OC)C(=O)N1N=C(c3ccc(O)cc3)CC21 (stereo unspecified),.,-3.8,-0.4,93.5*,.,.,.,3.5,2.4%,-0.1
COc1ccc(NC(=S)NC(=O)c2cncc(Br)c2)cc1,-5.4,-2.0,-12.2,?,6.4,11.1,0.6,-1.0,.,-0.8
COc1cccc(/C=N/NC(=O)CNC(=O)c2ccco2)c1O,-0.1,-4.0,-6.9,-8.9,6.9,11.1,15.4,-9.8,3.3%,-1.1
COc1ccc(C(=O)C2CCCN(C(=O)c3cc(C)on3)C2)cc1F (stereo unspecified),0.4,-0.1,-4.1,0.0,0.5,2.0,2.0,-7.4,.,-0.1
CCc1ccc(CN2CCC(n3nccc3NC(=O)c3ccccc3Cl)CC2)cc1,5.0,3.8,0.2,13.4,1.1,6.2,5.9,42.3,.,-0.5
Cc1ccc(NC(=O)CCl)cc1S(=O)(=O)N1CCCCCC1,-0.8,-0.5,11.7,-38.4,-15.7*,3.5*,-0.6*,25.7,3.5%,0.9
CCCn1nnc(NC(=O)COc2ccc(CC)cc2)n1,.,1.2,-0.4,24.8,.,.,.,-14.6,-1.3%,0.1
O=C(C1CCCN1S(=O)(=O)c1cccc2nsnc12)N1CCN(c2ccc(F)cc2)CC1 (stereo unspecified),2.6,-2.2,.,-0.2,-1.9,-9.1,0.7,-1.1,.,.
COc1ccc(CC(=O)N2N=C(C)CC2(O)C(F)(F)F)cc1OC (stereo unspecified),1.0,.,-4.3,-16.3,4.3,3.6,-2.5,.,-4.4%,1.3
Cc1cc(C)nc(N2CCCC(C(=O)NC3CC3)C2)n1 (stereo unspecified),-0.8,2.4,-3.8,7.9,9.2,4.9,1.7,-4.4,-4.0%,0.0
COc1nnc(-c2ccc(C)c(S(=O)(=O)NC(C)(C)CO)c2)c2ccccc12,-5.6,1.0,0.1,9.3,-14.3,-8.4,-2.4,8.9,.,-0.4
Cc1nc(-c2ccccc2)sc1-c1nc(-c2ccncc2)ncc1S(=O)(=O)c1ccccc1,.,1.6,0.1,13.8,.,.,.,23.1,0.7%,0.4
CCC(=O)Nc1ccc(S(=O)(=O)N2CCC(c3nc4ccccc4[nH]3)CC2)cc1,5.3,-1.0,5.9,3.7,-3.4,-2.0,-0.8,20.7,-3.0%,0.1
CCOC(=O)c1c(NC(=O)c2ccccc2)sc2c(O)c(CN(CC)CC)ccc12,.,-2.6,-2.3,-27.5,.,.,.,-2.9,3.0%,-0.3
Cc1ccc(C(=O)N/C(=C\c2cccc([N+](=O)[O-])c2)C(=O)NC(Cc2ccccc2)C(=O)O)cc1 (stereo unspecified),-7.4,?,.,6.4,13.6,10.8,0.8,-14.2,2.7%,-0.3
Cn1cc(S(=O)(=O)N2CCc3ccccc32)cc1C(=O)Nc1ccc(Cl)cc1,6.7,-0.3,2.6,-9.7,8.6,13.3,1.4,17.5,.,0.9

# Single records, from the list above. Screens in order: AF4-AF9 inh	RanGTP-Imp inh	Beta cell apopt	Calb FLC	Ecoli rRNA inh	Ecoli rRNA inh OD600	Ecoli rRNA inh RFP	T cruzi repl	Vif A3G	A1 inh
# Shown for O=C(CSc1nnc(-c2ccc3c(c2)OCO3)n1-c1ccccc1)c1ccc(Cl)cc1 → .	1.0	-7.4	-5.3	.	.	.	0.1	-4.9%	0.5
# Shown for O=C(CSc1ccc(-c2ccc(F)cc2)nn1)N1CCCc2ccccc21 → 2.6	4.3	-5.1	3.4	-29.2	-20.8	18.1	17.8	.	-1.8

# Not all compounds are listed; rates above refer to the full screens.
